TRPML1 inh: human mucolipin-1 channel inhibition. 390,000 tested, 0.02% active. activity change, negative = inhibition, % (test concentration not listed). TRPML1-inducible cells, Ca2+ dye fluorescence, FDSS; active compounds read low; inhibition of EC80 agonist-evoked calcium signal. Q9GZU1; in the data active means activity change below about -50%; inconclusive means about -30% to -50%; inactive means above about -30%;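 further: stimulus is agonist 54-4 at its EC80 concentration; on the % scale 0 is the no-effect control and ±100 the full control effect; compound concentration not given in the record; the text of the record puts the active cut at -80%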
Target sequence (Q9GZU1 whole entry, looked up): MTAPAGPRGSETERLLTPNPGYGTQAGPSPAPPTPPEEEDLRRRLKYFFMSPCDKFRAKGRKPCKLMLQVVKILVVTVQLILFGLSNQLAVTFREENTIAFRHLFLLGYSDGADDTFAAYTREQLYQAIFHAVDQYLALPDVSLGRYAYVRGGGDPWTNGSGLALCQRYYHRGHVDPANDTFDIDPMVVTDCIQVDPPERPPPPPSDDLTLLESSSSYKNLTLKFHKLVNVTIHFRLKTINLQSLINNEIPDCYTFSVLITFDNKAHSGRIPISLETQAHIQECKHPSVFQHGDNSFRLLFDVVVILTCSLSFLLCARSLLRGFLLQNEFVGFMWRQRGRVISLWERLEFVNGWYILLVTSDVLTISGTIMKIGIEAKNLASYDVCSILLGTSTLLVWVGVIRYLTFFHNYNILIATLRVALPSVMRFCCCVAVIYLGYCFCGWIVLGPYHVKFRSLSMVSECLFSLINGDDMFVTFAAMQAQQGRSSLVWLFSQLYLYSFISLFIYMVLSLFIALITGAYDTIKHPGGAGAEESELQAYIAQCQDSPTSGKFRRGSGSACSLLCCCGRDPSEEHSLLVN
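Calcium fluorescence in TRPML1-DL cells induced overnight with Tet: a 110 s read after compound pin addition, then a 110 s antagonist read after challenge with 54-4 at 4 uM final (EC80).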
CtBP-E1A inh: CtBP/E1A binding inhibition. activity change, % (test concentration not listed). AlphaScreen GST-E1A/His-CtBP binding, 1536-well; active compounds read low; control for the full effect not named in the record. 340,000 tested, 0.49% active; in the data active means activity change below about -65%; inconclusive means about -30% to -65%; inactive means above about -30%; further: on the % scale 0 is the no-effect control and ±100 the full control effect
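In 5 uL wells, 23 nL compound meets equimolar GST-E1A and His-CtBP (5X stock 125 nM each) for 2 h, 37 °C. Beads (5X, 50 ug/mL) then 1 h, 37 °C, dark.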
TRPML1 ag: agonists of human TRPML1 channel; activation, % (no concentration beside the values); TRPML1-expressing cells, Ca2+ dye fluorescence, FDSS; host cell line not named in the record; reference of the full effect not given here; 410,000 tested, 0.12% active; AID 624414; Q9GZU1; in the data active = activation above about 50%; inconclusive = about 30% to 50%; inactive = below about 30%; further: 0% is about no effect; the text of the record puts the active cut at 80%
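Agonist activity was taken from a 110 s kinetic Ca2+ dye read on the FDSS after pinning compounds onto TRPML1-DL cells. The cells were seeded at 1,500/well with Tet inducer, incubated about 16 h, then dye-loaded at room temperature.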
Six1-Eya2 inh: Six1/Eya2 interaction inhibition; AlphaScreen GST-Six1/His-Eya2 binding, biochemical; active compounds read low; control for the full effect not named in the record; Q15475+O00167; 360,000 tested, 0.56% active; AID 651725; activity change, % (concentration not given with the values); in the data active = activity change below about -65%; inconclusive = about -30% to -65%; inactive = above about -30%; further: on the % scale 0 is the no-effect control and ±100 the full control effect
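AlphaScreen with GST-Six1 and His-Eya2 (5X mix: 250 nM and 500 nM), glutathione donor and nickel acceptor beads; buffer 50 mM Tris pH 8.0, 300 mM NaCl, 1 mM TCEP; 1 h at 37 C in the dark.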
TRPV1 potentiator: human TRPV1 potentiation; 320,000 tested, 0.02% active; potentiation, % at 8.33 µM; Q8NER1; AID 540277; TRPV1-expressing cells, Fluo-8 calcium influx, capsaicin EC20 potentiation; host cell line not named in the record; control for the full effect not named in the record; active means potentiation above 80%; inconclusive means 30% to 80%; inactive means below 30%; further: 0% is about no effect
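Fluo-8 calcium influx in TRPV1-expressing cells, kinetic read (ex 480/em 520 nm). Compound added and read 3 min for agonist activity, followed by capsaicin at EC20 final and 2 min further read for enhancement.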
D2 PAM: positive allosteric modulators of human D2 dopamine receptor; DiscoveRx D2 beta-arrestin cells, luminescence, 90 min; 100% = 57 uM dopamine signal; AID 624464; potentiation, % (test concentration not listed); P14416; 360,000 tested, 0.23% active; active = potentiation of 50% or more; inconclusive = 30% to 50%; inactive = 30% or less;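 further: compound concentration not given in the record; tested on top of an EC20 dose of dopamine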
Target sequence (P14416 whole entry, looked up): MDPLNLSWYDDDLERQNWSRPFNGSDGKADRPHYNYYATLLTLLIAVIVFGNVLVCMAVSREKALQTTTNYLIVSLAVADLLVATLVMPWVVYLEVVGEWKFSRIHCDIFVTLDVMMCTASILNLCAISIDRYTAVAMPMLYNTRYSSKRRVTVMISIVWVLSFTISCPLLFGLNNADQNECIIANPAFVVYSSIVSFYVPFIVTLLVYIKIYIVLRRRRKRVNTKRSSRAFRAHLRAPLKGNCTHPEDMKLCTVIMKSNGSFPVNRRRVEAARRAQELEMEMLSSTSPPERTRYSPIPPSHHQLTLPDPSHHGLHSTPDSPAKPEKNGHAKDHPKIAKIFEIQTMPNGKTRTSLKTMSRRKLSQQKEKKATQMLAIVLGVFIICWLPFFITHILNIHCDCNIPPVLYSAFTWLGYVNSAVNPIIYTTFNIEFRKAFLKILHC
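D2 cells co-treated with compound plus 50 nM dopamine (EC20) for 90 min at 37 deg C to detect potentiation. Beta-arrestin recruitment was read as enzyme-fragment luminescence after 1 h at ambient temperature. Full response was set by 57 uM dopamine.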
The depositor's hits bear a star; u = inconclusive; x = no result given.

SMILES	TRPML1 inh	CtBP-E1A inh	TRPML1 ag	Six1-Eya2 inh	TRPV1 potentiator	D2 PAM
CC1CCCCC1NS(=O)(=O)c1ccc2c(c1)CC(=O)N2C (stereo not given)	2	x	-0.6	0	1	-1
Cc1ccc(S(=O)(=O)N(C)CC(=O)NNC(=O)CCNS(=O)(=O)c2cccc(C)c2)cc1	-3	x	-1.1	3	x	-2
Cc1ccc(S(=O)(=O)/C(C#N)=C/c2c[nH]c3ccccc23)cc1	17	-7	0.5	-10	12	4
S=c1[nH]nc(-c2ccccc2)n1/N=C/c1cccc(Br)c1	7	-11	2.7	-9	1	-12
CCOC(=O)c1c(C)[nH]c(C(=O)CN2C(=O)NC(C)(CC(C)C)C2=O)c1C (stereo not given)	31	-8	0.7	-16	5	13
O=C(Cc1ccccc1)NCC(=O)N1CCN(c2ccccc2F)CC1	-7	-11	0.5	1	1	-14
COc1ccc(-n2cnnc2SCC(=O)Nc2cc(S(=O)(=O)N3CCCCC3)ccc2C)cc1	20	-12	0.2	-5	14	-7
CCOc1cc(C(=O)N2CCOCC2)ccc1OCc1ccccc1	8	10	0.0	2	-12	-1
COc1cc(C(=O)N(C)C2CCCN(Cc3ccccc3F)C2)cc(OC)c1OC (stereo not given)	2	2	-0.4	10	-3	-9
COc1cccc(/C=N/n2c(-c3ccco3)nc3ccccc3c2=O)c1OC	1	1	-0.8	6	15	-11
C=CCN(C(=O)c1csnn1)C(C(=O)NCc1ccc(F)cc1)c1ccccc1F (stereo not given)	-2	9	-0.1	9	-32	-5
CC(=O)NS(=O)(=O)c1ccc(NC(=O)c2ccc(Cl)cc2[N+](=O)[O-])cc1	18	3	0.2	-9	8	7
CCCNC(=O)c1noc2c1CCc1ccccc1-2	-1	5	-0.9	2	18	-3
C=CCN(C(=O)CN1CCCCC1)c1nc(-c2ccccc2)cs1	-4	-2	-0.3	0	19	-1
CSc1ncc(Cl)c(C(=O)Nc2c(C)cccc2C)n1	-14	x	1.3	-4	14	-24
CN(Cc1ccccc1)C(=O)c1nc2ccccn2c1CN1CCC(N2CCOCC2)CC1	-1	-2	1.0	9	18	-11
COc1ccc(C2C=C(c3ccccc3)Nc3nc(NC(C)=O)nn32)cc1 (stereo not given)	8	x	6.4	x	10	x
CC(=O)c1cccc(-c2ccc3c(c2)C(C)(Cc2ccccc2F)C(=O)N3)c1 (stereo not given)	x	-4	-0.3	9	x	-2
CCN(C(=O)CSc1nc2cc(Cl)ccc2c(=O)n1Cc1ccco1)C1CCS(=O)(=O)C1 (stereo not given)	-5	6	-0.2	2	-7	-3
CCOc1ccc(C(=O)Cc2cc(OC)c(OC)cc2[N+](=O)[O-])cc1	0	23	-0.2	4	-11	-2
FC(F)Oc1ccc(NC(=S)NCc2cccnc2)cc1	37	-2	0.1	0	-17	-2
O=C(CSc1nnnn1Cc1ccccc1)c1ccc(F)cc1	1	15	1.6	9	-17	-1
COc1ccc(C(=S)N2CCN(c3ccccc3C)CC2)cc1OC	0	-13	1.0	-23	x	-38
COc1ccccc1NS(=O)(=O)c1cccc(C(=O)NCC(C)(C)N2CCOCC2)c1	8	4	0.2	-14	9	-11
Fc1ccc(CNc2ccc(CNc3ncn[nH]3)cc2)cc1	-11	-3	-0.4	-10	-1	-27
COc1ccc(-c2coc(CCC(=O)N3CCN(c4cc(C)ccc4C)CC3)n2)cc1	19	-5	-1.3	-6	x	-8
O=C(Nc1cccc2ccccc12)c1csc([C@@H]2O[C@H](CO)[C@@H](O)[C@H]2O)n1	x	8	-0.5	0	x	-1
NC(=O)C1CCN(c2nc(C3CC3)nc3c2nnn3Cc2ccccc2Cl)CC1	-1	1	1.7	3	16	-7
CCCCSc1nc(N)nc2c1ncn2C1OC(CO)C(O)C1O (stereo not given)	-2	2	0.0	3	x	-14
COc1cccc(-c2nnc(NC(=O)CCS(=O)(=O)c3ccc(F)cc3)o2)c1	0	-9	-0.3	-9	x	-9
O=[N+]([O-])c1ccc(N2CCN(CCOc3nonc3-c3ccccc3)CC2)c(Cl)c1	10	7	-0.5	-2	1	-13
NCC(=O)NCC(=O)NC[C@H]1O[C@@H](n2ccc(=O)[nH]c2=O)[C@H](O)[C@@H]1O	8	-15	-0.7	2	x	x
CC12CCC(c3c(CO)nn(-c4ccccc4)c31)C2(C)C (stereo not given)	-1	8	-0.6	5	-3	-2
CN(C)C(=O)c1cccc(-c2cnc3c(NC=O)cc(-c4ccccc4F)cn23)c1	x	-28	-0.5	u	x	6
CCOc1ccccc1N(C)S(=O)(=O)c1ccc2c(c1)CC(C)N2C(=O)C1CC1 (stereo not given)	-16	0	2.9	26	-2	5
Cc1ccc(C(=O)CCC(=O)CCC(=O)O)cc1	-1	0	0.3	5	x	-2
COc1ccc(-c2ccc3oc(-c4ccc(OC)cc4)c(C#CCCO)c3c2)cc1	-1	x	-0.1	0	x	-12
COc1cc(F)ccc1-c1csc(C(C)(O)c2ccc(F)c(F)c2)n1 (stereo not given)	-9	5	0.1	1	x	-4
CC1=C(C(=O)N(C(C)C)C(C)C)CC(CC(=O)NCc2cccc3ccccc23)C(=O)N1CCC1=CCCCC1 (stereo not given)	57	-12	1.8	-10	x	-11
CCCCN(C(=O)COc1ccc(NC(C)=O)cc1)C1CCS(=O)(=O)C1 (stereo not given)	-18	-2	0.6	-1	0	2

Complete entries from above. Order of values: TRPML1 inh	CtBP-E1A inh	TRPML1 ag	Six1-Eya2 inh	TRPV1 potentiator	D2 PAM
Listed for Fc1ccc(CNc2ccc(CNc3ncn[nH]3)cc2)cc1 : -11	-3	-0.4	-10	-1	-27
Listed for O=[N+]([O-])c1ccc(N2CCN(CCOc3nonc3-c3ccccc3)CC2)c(Cl)c1 : 10	7	-0.5	-2	1	-13

(continued)
SMILES	TRPML1 inh	CtBP-E1A inh	TRPML1 ag	Six1-Eya2 inh	TRPV1 potentiator	D2 PAM
CC1(C)CC(NC(=O)C2CCC(=O)N(C3CC3)C2)CC(C)(C)C1 (stereo not given)	-1	3	0.1	3	-12	-1
O=C(OCC(=O)N(Cc1ccccc1)C1CCS(=O)(=O)C1)c1cc2c(s1)CCCC2 (stereo not given)	-4	-9	1.1	5	-8	-6
O=C(Nc1nnc(SCCN2CCOCC2)s1)C1CC(=O)N(c2ccc(F)cc2)C1 (stereo not given)	-1	-5	0.0	-2	-10	2
COc1ccc(C(=O)NNC(=S)NC(=O)c2ccccc2[N+](=O)[O-])cc1	-6	-12	1.4	-7	-4	-23
Cc1[nH]c(C)c(S(=O)(=O)N2CCN(c3ccccc3F)CC2)c1C(=O)N1CCCC1	-6	0	-0.9	14	2	-20
CCC1SC2=NC(C)=C(C(=O)OCC(C)C)C(/C=C/c3ccccc3OC)N2C1=O (stereo not given)	-12	-7	1.7	-7	-10	-10
Cn1c2c(c(=O)n(C)c1=O)C(C(F)(F)F)(C(F)(F)F)N=C(CCC1CCCCC1)N2	21	-12	2.3	-4	-5	4
O=S(=O)(NCCc1ccccn1)c1ccc(OC(F)(F)F)cc1	-10	1	0.3	-7	-10	-9
Cc1cc(NC(=O)c2ccc(F)cc2)n(CCOC(=O)c2ccc(F)cc2)n1	-8	3	-0.8	14	-6	-9
O=C(CN1C(=O)NC2(CCCCC2)C1=O)Nc1cccc2ncccc12	1	-20	0.9	3	-10	-1
O=C(COC(=O)c1cc2ccccc2oc1=O)c1cccc([N+](=O)[O-])c1	14	17	-0.3	3	-20	-9
CCN(C(=O)COC(=O)[C@H](C)N=C1NS(=O)(=O)c2ccccc21)C1CCS(=O)(=O)C1 (stereo not given in full)	20	0	1.1	6	2	-7
COc1ccccc1NC(=O)c1sc2nc(C)c(C(=O)Nc3ccc(C)cc3C)c(-c3ccco3)c2c1N	-14	x	1.2	x	3	x
Cc1ccc2c(c1)N(CCC(=O)NCc1ccc3c(c1)OCO3)C(=O)CO2	-4	0	-0.6	18	x	-7
O=[N+]([O-])c1cccc(-c2noc3c2-c2nc(Cc4cccc5ccccc45)sc2CC3)c1	-3	-10	0.5	6	-3	-1
COCCNC(=O)c1nn2c(C(F)(F)F)cc(-c3ccccc3)nc2c1Cl	-9	x	0.1	0	-6	2
Cc1ccc(N/N=C(\C#N)C(=N)N2CCOCC2)cc1	-14	0	-0.5	-6	-8	-7
CCOC(=O)C1(Cc2ccc(Cl)cc2)CCN(C(=O)CCc2ccncc2)CC1	4	0	-0.6	0	-15	0
CCN(C(=O)COc1ccccc1C(=O)NCc1ccccc1)C1CCS(=O)(=O)C1 (stereo not given)	-2	18	0.0	2	1	-5
CC1(C(=O)Nc2nccs2)CCN1C(=O)C1(c2ccccc2)CC1 (stereo not given)	x	-1	-0.7	-1	x	-1

Five entries out of the list, ordered by count of non-hydrogen atoms, rising:
SMILES	TRPML1 inh	CtBP-E1A inh	TRPML1 ag	Six1-Eya2 inh	TRPV1 potentiator	D2 PAM
COc1ccc(C(=O)NNC(=S)NC(=O)c2ccccc2[N+](=O)[O-])cc1	-6	-12	1.4	-7	-4	-23
Cc1cc(NC(=O)c2ccc(F)cc2)n(CCOC(=O)c2ccc(F)cc2)n1	-8	3	-0.8	14	-6	-9
CCOC(=O)C1(Cc2ccc(Cl)cc2)CCN(C(=O)CCc2ccncc2)CC1	4	0	-0.6	0	-15	0
O=C(OCC(=O)N(Cc1ccccc1)C1CCS(=O)(=O)C1)c1cc2c(s1)CCCC2 (stereo not given)	-4	-9	1.1	5	-8	-6
O=[N+]([O-])c1cccc(-c2noc3c2-c2nc(Cc4cccc5ccccc45)sc2CC3)c1	-3	-10	0.5	6	-3	-1

(listing goes on)
SMILES	TRPML1 inh	CtBP-E1A inh	TRPML1 ag	Six1-Eya2 inh	TRPV1 potentiator	D2 PAM
CC1CC(C)(C)NC(=S)N1CCCC(=O)N1CCN(c2ccc(F)cc2)CC1 (stereo not given)	0	-3	-0.7	-16	8	-3
O=C(NCCN1CCOCC1)c1cnn2c(-c3ccccc3)cc(-c3ccccc3)nc12	-12	-7	1.5	-2	-10	-21
Cc1ccc(-c2cc(Cc3ccccn3)c(=O)[nH]n2)cc1	88	-8	1.3	-14	-13	-8
O=Nc1c(-c2ccccc2)[nH]n(-c2ccccc2)c1=O	11	-5	0.8	-10	-15	-17
CCOc1cc(CNc2ccc(N3CCCCC3)cc2)cc(Br)c1OCC(=O)NC(C)(C)C	3	u	-0.5	u	-13	-1
COc1ccc(N(C2CSC2)S(=O)(=O)c2ccccc2)cc1	8	2	2.9	-7	-17	-7
